ERK AVP inh: vasopressin-driven ERK pathway inhibition. HEK293-V1b, vasopressin-stimulated pERK AlphaScreen. Potency, µM (titrated, usually from 57.5 µM), for the others: at the top dose activity, negative = inhibition, hits mostly inhibitors. hit rate 0.99% among 72,000; active = well fitted inhibition curve with a large enough effect; inconclusive = small, poorly fitted or top-dose-only effect; inactive = no such curve, though single readings can be large or run the other way; note: potency is the fitted concentration of half-maximal effect; % is set by controls: 0 for no effect and ±100 for the full control effect; nearly all actives have a fitted effect of over 55% in size
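qHTS, compounds titrated on V1b-expressing HEK293 cells. Preincubation 30 min at 37C, vasopressin 25 nM for 5 min, lysis 10 min, bead incubation 5 hr at room temperature.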
Texas Red fluor: Texas Red region autofluorescence; hit rate 0.06% among 59,000; max dye-equivalent concentration, M; Compound fluorescence, Texas Red channel, 547/618 nm; active compounds read high; in the data active = max dye-equivalent concentration above about 10 nM; inconclusive = between about 1.1 nM and that limit
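qHTS profiling of intrinsic compound fluorescence; 100 mM Tris pH 8.0; 15 min RT; ex 547 / em 618 nm; response expressed as Texas Red dye-equivalent concentration from six-point plate standard.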
Rhodamine autofl: compound autofluorescence in rhodamine spectral region | Rhodamine-region fluorescence, 547/598 nm, Tris buffer; active compounds read high | max dye-equivalent concentration, M | hit rate 0.05% among 59,000 | AID 594; in the data active = max dye-equivalent concentration above about 11 nM; inconclusive = between about 1.1 nM and that limit
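Steps: pin-transfer compounds into pH 8.0 Tris (100 mM), hold 15 min at room temperature, image with a 547/598 nm filter pair, and convert intensities to rhodamine-equivalent concentration using a six-point on-plate rhodamine series.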
Active calls of the source: *; i = inactive; ? = inconclusive; / = not tested or not shown; & = joins results of further samples; [ ] = dose if it differs, or a comment. A portion of the library (hit frequency here may not be typical).

ERK AVP inh | Texas Red fluor | Rhodamine autofl | Structure
20% | i | i | Cc1ncc([N+](=O)[O-])n1CCO
9%[11.5 µM] | i | i | COc1ccc2c(c1)c1c(C)c3cnccc3c(C)c1n2CCCN
-8% | i | i | Cc1cccn2c(=O)c3cc(C#N)c(=NC(=O)c4cccnc4)n(CC4CCCO4)c3nc12 (stereo not drawn)
-3% | i | i | N[C@H](CC(=O)O)C(=O)O
4% | i | i | Cn1c(=O)c2c(ncn2C)n(C)c1=O
-6% | / | / | Cc1cccc(N2CCN(C(=O)c3cc4c(=O)n(C)c5ccccc5c4n3C)CC2C)c1 (stereo not drawn)
11%&23% | ? | i | NCCS(=O)(=O)O
-8%[11.5 µM] | i | i | NCCC[C@@H](N)C(=O)O
10% | i | i | CC(C)[N+]1(C)[C@@H]2CC[C@H]1CC(OC(=O)[C@@H](CO)c1ccccc1)C2 (stereo partly drawn)
? | i | i | O=C(O)c1cc(=O)c2ccccc2[nH]1
35%&18%[activator] | / | / | CC(C)NCC(O)COc1cccc2ccccc12 (stereo not drawn)
-16% | i | i | N=C(N)c1ccc(OCCCCCOc2ccc(C(=N)N)cc2)cc1
7% | i | i | CC(C)(C)NC(=O)CN(C(=O)CCN1CCCc2ccccc21)C(C)(C)C
-3% | i | i | O=C(O)CCNC(=O)c1ccccc1
4%&-8% | ? | i | O=c1c(-c2ccc(O)cc2)coc2cc(O)ccc12
12%[25.7 µM] | i | i | O=C(/C=C\c1ccc(O)c(O)c1)O[C@@H]1C[C@](O)(C(=O)O)C[C@@H](O)[C@@H]1O
-17% | / | / | CCC(C)(C)C(=O)OC1CC(C)C=C2C=CC(C)C(CCC3CC(O)CC(=O)O3)C21 (stereo not drawn)
-6%[25.7 µM] | ? | i | CN1Cc2c(N)cccc2[C@H](c2ccccc2)C1
14% | / | / | C[C@H](C(=O)O)c1cccc(C(=O)c2ccccc2)c1
0%[11.5 µM] | i | i | [Cu].[NH-][C@H](CC(=O)O)C(=O)O.[NH-][C@H](CC(=O)O)C(=O)O
20% | i | i | Cc1cn([C@H]2C[C@H](N=[N+]=[N-])[C@@H](CO)O2)c(=O)[nH]c1=O
39%[activator] | i | i | Nc1nc(N)c2nc(-c3ccccc3)c(N)nc2n1
-6% | / | / | O=C(O)/C=C\C(=O)O
/ | i | i | CC(C)(C)CC(C)(C)c1ccc(OCCOCC[N+](C)(C)Cc2ccccc2)cc1
0% | i | i | Cc1nc2ccc(S(=O)(=O)NCC(=O)NCCN3CCCCCC3)cc2s1
4%&-6% | i | i | Cc1cnc(NC(=O)C2=C(O)c3ccccc3S(=O)(=O)N2C)s1
-9% | / | / | CN1CCCC1c1cccnc1 (stereo not drawn)

Screening data: PubChem, National Center for Advancing Translational Sciences (NCATS)
